# TRPML1 blocker: blocks the human TRPML1 channel | AID 624415 | activity change, negative = inhibition, % (no concentration beside the values) | actives 0.02% (n = 390,000) | Q9GZU1 | TRPML1-inducible cells, Ca2+ dye fluorescence, FDSS; hits give low values; inhibition of EC80 agonist-evoked calcium signal; in the data active means activity change below about -50%; inconclusive means about -30% to -50%; inactive means above about -30%;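 note: stimulus is agonist 54-4 at its EC80 concentration; % is set by controls: 0 for no effect and ±100 for the full control effect; compound concentration not given in the record; the text of the record puts the active cut at -80%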
#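 Tet-induced TRPML1-DL cells loaded with Ca8 no-wash calcium dye were read kinetically on FDSS. Compound addition was followed by EC80 agonist 54-4 (4 uM final); inhibition was read over 110 s.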
# Menin-MLL FL inh: menin-MLL binding inhibition, fluorescein peptide; 290,000 tested, under 10 active; FP activity change, % at 61.4 µM; AID 1766; Fluorescence polarization, fluorescein-MLL peptide displacement from menin; inconclusive = falling polarisation curve, or a change in total fluorescence; inactive = total fluorescence flat and polarisation flat or rising; no compound was filed as active; the % refers to the polarisation; negative = inhibition;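 note: % of control where 0% means no effect; inhibitors lower the polarisation; unlabelled MLL peptide was the positive control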
# PINK1 expr mod: modulators of PINK1 expression; Potency, µM (top dose mostly 76.6 µM), for inactives: top-dose activation (PINK1 increase), most hits filed as activators; PINK1 immunofluorescence, high-content cytometry, 24 h; actives 0.2% (n = 410,000); active = well fitted activation curve with a large enough effect; inconclusive = small, poorly fitted or top-dose-only effect; inactive = flat fitted curve, though single readings scatter; cell line not stated here;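 note: potency is the fitted concentration of half-maximal effect; % of control where 0% means no effect; nearly all actives have a fitted effect of over 65% in size; a mitochondrial uncoupler was the plate control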
#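 A stable cell line was treated with compounds at 5 concentrations for 24 hours, with CCCP as control. PINK1 levels and mitochondrial localization were measured by immunofluorescence with mitochondrial, cell and nuclear markers after fixation, read by laser-scanning cytometry.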
# Sfp inh: Sfp phosphopantetheinyl transferase inhibition; Q9F4F7; Biochemical Sfp PPTase activity, qHTS; Potency, µM, inactives show max response, negative = inhibition, hits mostly inhibitors; actives 3.5% (n = 310,000); AID 1490; active = well fitted inhibition curve with a large enough effect; inconclusive = small, poorly fitted or top-dose-only effect, or another doubt; inactive = no such curve, though single readings can be large or run the other way;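 note: the enzyme is Sfp with the accession as filed and its product quenches rhodamine fluorescence; potency is the fitted concentration of half-maximal effect; 0% = enzyme reaction without inhibitor and -100% = no enzyme wells; top concentration of the series not given in the record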
#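 With Hepes-Na pH 7.6 buffer containing 10 mM MgCl2, Sfp (15 nM) modified BHQ-2-YbbR (12.5 uM) using rhodamine-CoA (5 uM). Two reads 30 minutes apart at 525/598 nm yielded each well's rate.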
# ClpP mod: qHTS Assay for Activators of ClpP | ATP-dependent Clp protease proteolytic subunit (Bacillus subtilis (strain 168)), P80244 | purified B. subtilis ClpP, FRET peptide cleavage, 20 min | Potency, µM (highest dose often 57.5 µM), for inactives: top-dose activity change, negative = active | actives 1.9% (n = 340,000) | AID 651965, 2013; active = well fitted falling curve with a large enough effect; inconclusive = small, poorly fitted or top-dose-only effect; inactive = no such curve, though single readings can be large or run the other way; note: potency is the fitted concentration of half-maximal effect; the source files actives as falling curves though it sought activators and does not explain the sign; nearly all actives have a fitted effect of over 65% in size; many hits overshoot -100%
# Target sequence (P80244 whole entry, looked up): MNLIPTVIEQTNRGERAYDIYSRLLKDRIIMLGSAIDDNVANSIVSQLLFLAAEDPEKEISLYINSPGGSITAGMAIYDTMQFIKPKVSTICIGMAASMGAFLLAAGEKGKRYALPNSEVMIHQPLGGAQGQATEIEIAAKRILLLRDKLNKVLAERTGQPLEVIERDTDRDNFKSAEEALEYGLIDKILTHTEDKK
#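 FRET quenching reversal measured ClpP activation: 10 microg/mL B. subtilis ClpP at pH 8 with the FRET-FV decapeptide, read at 430 nm after 320 nm excitation. The 20-min minus 0-min signal was scaled between DMSO/no-enzyme wells and ADEP (5.8 microM final).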
# TRPML1 ag: human mucolipin-1 channel agonism | actives 0.12% (n = 410,000) | AID 624414 | Q9GZU1 | activation, % (test concentration not listed) | TRPML1-expressing cells, Ca2+ dye fluorescence, FDSS; host cell line not named in the record; reference of the full effect not given here; in the data active = activation above about 50%; inconclusive = about 30% to 50%; inactive = below about 30%; note: 0% is about no effect; the text of the record puts the active cut at 80%
#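 Cells: TRPML1-DL, 1X Tet inducer, ~16 h at 37 degrees C/5% CO2. Dye: ABD Ca8 no-wash + quencher, 45-90 min RT. Read: 10 s baseline, compound add, 110 s agonist phase; 54-4 EC80 (4uM final), 110 s antagonist phase.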
# TRPV1 PAM: human TRPV1 potentiation. actives 0.02% (n = 320,000). potentiation, % at 8.33 µM. TRPV1-expressing cells, Fluo-8 calcium influx, capsaicin EC20 potentiation; host cell line not named in the record; control for the full effect not named in the record. Q8NER1; active means potentiation above 80%; inconclusive means 30% to 80%; inactive means below 30%; note: 0% is about no effect
# Target sequence (Q8NER1 whole entry, looked up): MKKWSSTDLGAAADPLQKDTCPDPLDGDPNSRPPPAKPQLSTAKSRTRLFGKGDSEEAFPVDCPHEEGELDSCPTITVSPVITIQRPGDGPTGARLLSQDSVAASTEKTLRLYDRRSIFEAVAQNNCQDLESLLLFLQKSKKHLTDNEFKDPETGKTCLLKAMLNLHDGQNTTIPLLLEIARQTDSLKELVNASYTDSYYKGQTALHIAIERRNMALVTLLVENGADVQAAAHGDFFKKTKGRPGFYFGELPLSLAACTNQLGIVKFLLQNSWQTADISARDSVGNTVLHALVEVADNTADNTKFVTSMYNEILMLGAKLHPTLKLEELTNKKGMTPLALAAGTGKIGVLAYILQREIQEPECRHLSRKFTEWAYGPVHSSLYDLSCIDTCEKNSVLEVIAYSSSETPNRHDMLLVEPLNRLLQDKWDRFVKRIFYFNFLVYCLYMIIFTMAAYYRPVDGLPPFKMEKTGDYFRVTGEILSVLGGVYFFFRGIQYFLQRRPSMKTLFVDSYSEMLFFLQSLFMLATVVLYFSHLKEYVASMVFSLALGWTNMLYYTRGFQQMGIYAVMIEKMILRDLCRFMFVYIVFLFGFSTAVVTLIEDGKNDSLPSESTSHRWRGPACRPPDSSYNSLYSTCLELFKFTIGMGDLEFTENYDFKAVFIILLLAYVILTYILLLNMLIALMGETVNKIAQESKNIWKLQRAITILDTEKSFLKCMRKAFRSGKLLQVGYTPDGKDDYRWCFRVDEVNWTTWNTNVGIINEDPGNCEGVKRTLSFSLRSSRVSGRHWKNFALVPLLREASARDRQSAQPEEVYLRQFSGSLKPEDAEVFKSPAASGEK
#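 TRPV1-expressing cells were cultured overnight at 35.5C and loaded with Fluo-8 calcium dye for 40 to 90 min at room temperature. After a 10 s baseline, compound was added and calcium influx was read kinetically for 3 min (ex 480/em 520 nm).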
# The depositor's hits bear a star; ? = inconclusive; nt = not tested or not shown; [ ] = dose if it differs, or a comment.
# Every second line gives: TRPML1 ag	ClpP mod	PINK1 expr mod	TRPML1 blocker	TRPV1 PAM	Sfp inh	Menin-MLL FL inh
COCCCn1c(C)nnc1-c1cnn(-c2ccccc2)c1N
  -0.1	0.0%	-0.6%	3	0	5%	0.1
Cc1cc(C(=O)CSc2nc3ccccc3c(=O)n2C)c(C)n1Cc1ccc2c(c1)OCO2
  0.6	-1.2%	2.2%	5	-16	?	?
CC(=O)NS(=O)(=O)c1ccc(NC(=O)CCC2CCCC2)cc1
  -0.3	3.2%	-0.5%	-15	-5	18%	-0.5
O=C(N/N=C/c1ccc(Sc2ccccn2)o1)c1cccc([N+](=O)[O-])c1
  -0.8	3.7%	-0.3%	10	-1	-12%	-3.0
CN(C)c1cc[n+](CC(=O)c2ccc(Br)cc2)cc1
  0.3	nt	3.5%	-25	16	18%	-2.7
COc1ccc(S(=O)(=O)N/N=C\c2ccccc2F)cc1
  0.8	-2.3%	-0.6%	0	21	9%	0.1
CCN(CC(=O)Nc1c(F)cccc1F)C(=O)c1ccc(=O)n(Cc2ccccc2)n1
  -0.6	0.0%	-1.6%	0	0	13%	nt
Cc1nc(N)nc(COc2ccccc2)n1
  -0.4	-1.1%	2.0%	12	nt	22%	0.8
O=C(Nc1ccccc1O)c1c(O)c2c([nH]c1=O)CCCC2
  0.3	nt	4.1%	13	-2	-5%	-0.6
Cc1cccc(CN2C(=O)c3ccccc3Sc3ccc(C(=O)NC4CCCCC4)cc32)c1
  0.3	0.4%	0.0%	70	nt	nt	nt
COc1cccc(NC(=O)CN(C)CC(=O)c2c(N)n(Cc3ccccc3)c(=O)n(C)c2=O)c1
  -1.0	1.0%	7.6%	2	24	nt	nt
Cc1cc[n+](Cc2ccc([N+](=O)[O-])cc2)cc1
  -0.2	nt	0.4%	-19	13	-3%	0.1
Cc1ccc(CCNC(=O)CN2C(=O)COc3ccccc32)cc1
  -0.3	1.2%	5.3%[38.3 µM]	-10	3	14%	0.2
Nc1nc2c(ncn2[C@@H]2O[C@H](CNCc3ccc(F)c(N4CCOCC4)c3)[C@@H](O)[C@H]2O)c(=O)[nH]1
  0.7	0.1%	1.7%	-11	nt	nt	nt
CCCNC(=O)NC1CCCc2ccccc21 (configuration not stated)
  0.6	-2.1%	-0.6%	19	-14	18%	9.0
Cc1sc2ncnc(Sc3nc4ccccc4s3)c2c1C
  nt	nt	nt	nt	4	8%	2.0
CCOc1ccc(N2C(=O)Nc3ccccc3C2(O)C(=O)N2CCN(c3ccccn3)CC2)cc1 (configuration not stated)
  -1.2	0.4%	1.1%	-4	-6	16%	0.6
N#Cc1cc2c(nc1SCc1cccnc1)CCCCC2
  2.3	-5.3%	-1.3%[38.3 µM]	2	-37	79µM*	4.4
Cc1oc(S(=O)(=O)N2CCOCC2)cc1C(=O)Nc1ccc(Cl)cc1
  0.1	nt	14%	-3	-13	26%	1.8
O=C(COc1ccc(Cl)cc1Cl)N1CCCCCC1
  -0.3	0.8%	-2.7%[38.3 µM]	-3	17	-7%	5.2
CCCCC(O)C1=C[N+](=O)CC=C1 (configuration not stated)
  0.0	-4.8%	-0.6%	nt	nt	nt	nt
O=C(NCc1ccc(F)cc1F)[C@@H]1CCCN1C(=O)[C@@H]1CCCN1C(=O)c1cccc(Cl)c1
  -0.6	-1.0%	0.5%	nt	nt	nt	nt
O=C(c1ccc(NS(=O)(=O)c2ccc(F)cc2)cc1)N1CCCCCC1
  -0.2	nt	0.7%	2	8	nt	nt
Cc1cccc(C)c1NS(=O)(=O)c1ccc(OCCNS(C)(=O)=O)cc1
  0.1	nt	-2.4%	-2	0	11%	1.3
Cc1ccc(NC(=O)N2CCCC2c2cccs2)cc1 (configuration not stated)
  0.6	-0.5%	-0.3%	-2	-20	16%	-4.8
CN1CCN(C(=O)c2ccc3c(c2)NC(=O)/C(=C/c2ccccc2)S3)CC1
  0.3	-0.1%	2.5%	29	8	-13%	6.2
O=C1C2C3c4ccccc4C(c4ccccc43)C2C(=O)N1CN1CCOCC1 (configuration not stated)
  0.2	-0.4%	5.4%[38.3 µM]	-2	-10	4%	2.9
O=C(Nc1nnc(-c2cc(Cl)ccc2Cl)o1)c1ccco1
  -0.4	nt	5.9%	5	7	nt	nt
COc1ccc(CCNC(=O)c2ccc(CN3CCC(Cc4ccccc4)CC3)cc2)cc1
  -0.4	-2.0%	4.4%	-4	5	6%	6.3
O=C1C2C3C=CC(C3)C2C(=O)N1c1ncn[nH]1 (configuration not stated)
  0.2	0.2%	13%[38.3 µM]	13	22	-5%	-0.4
OC(c1ccccc1)C1CN(Cc2ccccc2)CCC1(O)c1ccccc1 (configuration not stated)
  -0.3	-0.4%	0.0%[38.3 µM]	16	-6	2%	5.2
COc1cc(/C=N/NC(=O)CCC(=O)Nc2ccc(F)cc2)ccc1O
  -1.3	0.8%	0.0%	6	-3	8%	1.4
O=C(NC1CCCCCC1)c1ccc2c(c1)sc1nc(-c3ccccc3)cn12
  0.1	?	-0.1%	-5	nt	nt	nt
Cc1ccc(C(=O)NC2CCCCCCC2)c(Cl)c1
  0.1	0.6%	5.1%	2	-18	16%	-4.4
O=C1CCCCN1CCCC(=O)N1CCCC(Nc2ccccc2)C1 (configuration not stated)
  0.1	0.9%	4.1%	-4	-5	12%	-1.9
CN(CC(=O)NCCc1ccccc1)S(=O)(=O)c1ccc(Br)cc1
  -0.3	0.2%	nt	-19	-9	15%	1.0
CCc1nc(-c2cc(S(=O)(=O)N3CCN(c4ccccc4F)CC3)ccc2OC)no1
  3.0	0.8%	1.9%	43	-3	nt	nt
O=C(Nc1ncc(S(=O)(=O)c2ccc([N+](=O)[O-])cc2)s1)c1cccc2ccccc12
  20	-1.5%	11%	-7	2	12%	1.7
COc1ccc(-c2cc3cccc(OC)c3oc2=O)cc1
  -0.3	3.5%	2.4%	-5	0	-1%	11
C=CCOC(=O)C1=C(C)NC(SCC(=O)Nc2nccs2)=C(C#N)C1c1cccs1 (configuration not stated)
  1.6	9.8%	3.9%	2	0	0%	4.6
CC1Cc2nc(SCC(=O)N3CCCCC3)n(C)c(=O)c2S1 (configuration not stated)
  -0.3	0.3%	-0.7%	7	nt	nt	nt
Cc1cccc(-c2oc3ccccc3c2C#CCCO)c1
  0.2	4.4%	6.5%	38	9	-1%	1.6
COc1cc2c(cc1OC)CN(c1nc(CN3CCOCC3)nc3sc4c(c13)CCC(C)C4)CC2 (configuration not stated)
  -0.8	-6.8%	1.3%	-1	10	-27%	3.7
COc1ccc(S(=O)(=O)NCC2CCCO2)cc1NC(=O)c1ccccc1 (configuration not stated)
  1.3	-0.5%	-1.0%	-16	-5	6%	nt
O=C(Nc1ccc(N2CCOCC2)cc1)c1ccc(S(=O)(=O)N2CCCCC2)cc1
  -0.3	3.7%	6.4%	13	-10	2%	2.1
CCc1noc(C)c1C(=O)NCCc1ccc(OC)c(OC)c1
  0.5	0.2%	1.0%[38.3 µM]	19	-19	21%	4.7
O=C(NCCc1ccc(Cl)cc1)C1CCN(C(=O)c2ccc(F)cc2)CC1
  1.0	nt	0.4%	-14	-4	13%	1.2
Cc1c(C(=O)c2ccc(Cl)c([N+](=O)[O-])c2)c2ccccn2c1CCC#N
  2.5	-3.0%	-0.9%	15	-5	-3%	5.6
CCOC(=O)C(NC(=O)CCl)(Nc1sc(C)c(CC)c1C#N)C(F)(F)F (configuration not stated)
  -0.3	-2.4%	-3.2%	-2	-5	-8%	6.3
CC1(c2ccc(Cl)cc2Cl)NC(=O)N(CC(=O)NC2CCCCC2)C1=O (configuration not stated)
  0.3	-1.0%	1.1%	-13	5	nt	nt
CCCCNC(=O)Cn1cnc2sc(C(=O)OCC)c(C)c2c1=O
  -0.5	-6.3%	0.3%	1	-2	9%	1.3
C[C@@H]1CN([C@@H](C)CO)C(=O)CCCn2nncc2CO[C@H]1CN(C)S(=O)(=O)c1ccc(F)cc1
  0.0	-2.5%	-0.6%	4	nt	nt	nt
CCc1noc(C)c1C(=O)N1CCC(CCC(=O)Nc2cccc(OC)c2)CC1
  -0.6	2.4%	0.9%	-7	4	11%	-11
COc1ccccc1NC(=O)c1cc2c(=O)n(Cc3cccs3)ccc2nc1C
  1.3	?	2.4%	-13	nt	nt	nt
CC(=O)c1c(C(C)=O)c(C)n(-c2nc(-c3ccc(Br)cc3)c(C)s2)c1C
  2.4	-0.3%	-1.8%	25	1	-3%	1.8
CCOc1ccc(C(=O)NC(C(=O)NCC(c2cccs2)N(C)C)C(C)C)cc1 (configuration not stated)
  -0.2	-0.5%	-0.7%	9	-4	nt	nt
COC(=O)c1cc(-c2ccc3c(c2)OCO3)nc2ccccc12
  -0.4	-11%	0.1%	-4	-3	-22%	4.2
COc1ccc(C2c3ccc(O)cc3Oc3ncn(Cc4ccccc4)c(=N)c32)cc1OC (configuration not stated)
  -0.3	-0.3%	4.9%	3	-1	4%	4.1
O=C(CN1C(=O)NC2(CCCc3ccccc32)C1=O)c1ccc(F)cc1 (configuration not stated)
  1.1	1.1%	1.0%	-8	0	nt	nt
CN(C)CCOC(=O)c1sc2ccccc2c1Cl
  -0.6	nt	2.6%	53	13	10%	-3.0
O=S(=O)(Oc1ccccc1-c1ccccc1)c1ccccc1
  -0.5	-3.2%	0.5%	-5	nt	nt	nt
O=C(Oc1ccc(N(Cc2cccs2)C2=NS(=O)(=O)c3ccccc32)cc1)c1ccc(Cl)cc1
  2.0	-23%	-1.5%	30	20	7%	2.1
COc1cc(CCC(=O)OCC(=O)Nc2ccc(C)cc2Br)cc(OC)c1OC
  4.3	nt	0.4%	-10	-3	9%	-7.9

# An excerpt from above in order of molar mass, largest number first:
# Every second line gives: TRPML1 ag	ClpP mod	PINK1 expr mod	TRPML1 blocker	TRPV1 PAM	Sfp inh	Menin-MLL FL inh
COc1ccc(CCNC(=O)c2ccc(CN3CCC(Cc4ccccc4)CC3)cc2)cc1
  -0.4	-2.0%	4.4%	-4	5	6%	6.3
Cc1oc(S(=O)(=O)N2CCOCC2)cc1C(=O)Nc1ccc(Cl)cc1
  0.1	nt	14%	-3	-13	26%	1.8
COC(=O)c1cc(-c2ccc3c(c2)OCO3)nc2ccccc12
  -0.4	-11%	0.1%	-4	-3	-22%	4.2

# Source: PubChem
